Beta2AR agonist: agonists of human beta-2 adrenergic receptor inducing internalization | P07550 | AID 504454 | Am2.2-beta2AR cells, FAP receptor internalization, flow cytometry; reference of the scale not given here | response, % (concentration not given with the values) | 340,000 tested, 0.43% active;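 active = response above a set limit, near 3 SD of response in nonfluorescent compounds, cut at about 42% in these data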;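 also: stock transfer was 100 nL into about 11 µL; a reference agonist was the positive control; negative values mostly stem from fluorescent compounds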
Target sequence (P07550 whole entry, looked up): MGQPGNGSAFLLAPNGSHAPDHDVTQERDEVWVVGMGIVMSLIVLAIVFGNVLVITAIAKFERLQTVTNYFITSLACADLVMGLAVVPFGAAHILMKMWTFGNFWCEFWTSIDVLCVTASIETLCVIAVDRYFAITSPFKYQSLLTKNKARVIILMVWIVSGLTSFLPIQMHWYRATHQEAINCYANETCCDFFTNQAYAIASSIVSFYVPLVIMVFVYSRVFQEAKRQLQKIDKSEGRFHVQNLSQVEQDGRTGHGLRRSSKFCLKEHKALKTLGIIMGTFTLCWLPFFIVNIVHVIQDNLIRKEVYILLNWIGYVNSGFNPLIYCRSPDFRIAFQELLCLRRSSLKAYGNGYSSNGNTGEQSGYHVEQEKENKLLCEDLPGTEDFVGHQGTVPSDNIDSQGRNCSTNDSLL
LANA-H2B inh: blocks KSHV LANA binding to histone H2A/H2B; Q9QR71; cell-free LANA-H2A/H2B peptide, fluorescence polarization; inhibition, % (concentration not given with the values); 320,000 tested, 0.6% active; in the data active = inhibition mostly above about 10%, no sharp cut-off; inactive = mostly below about 6.7%;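 also: stock transfer was 7.5 nL into about 10 µL; 0% = median of vehicle wells and 100% = median of positive control wells; one replicate is shown; the record names a cut of 25% in any replicate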
Calb FLC: C. albicans growth modulation with fluconazole; C. albicans CaCi-2 (fluconazole-resistant clinical isolate) + fluconazole, Alamar Blue growth, 48 h; growth inhibition, % (test concentration not listed); 300,000 tested, 0.57% active; AID 1979;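 active = most replicates above 75%; inconclusive = exactly half above 75%; inactive = most below 75%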;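 also: all wells also contain fluconazole at 8 µg/ml as a sub-toxic cotreatment; 0% = median of DMSO wells and 100% = median of geldanamycin control wells; wells of about 8 µL received 7.5 nL stock; the first replicate is given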
Beta cell apopt: beta cell apoptosis inhibition; INS-1E cytokine-induced death, ATP luminescence, 48 h; percent of positive-control rescue, neutral wells zero; 300,000 tested, 0.8% active; protection from apoptosis, % (no concentration beside the values);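 active = all replicates at 75% or more, or half of them and the mean; inconclusive = half reach 75% but not the mean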;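 also: 0% = cytokine-treated negative control wells and 100% = positive control rescue; higher means more ATP so stronger rescue from cytokine killing; wells of about 40 µL received 100 nL stock; the first replicate is given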
UCH37 DUB inh: blocks the human deubiquitinase UCH37; 330,000 tested, 0.33% active; inhibition, % (test concentration not listed); Q9Y5K5; AID 588478; purified proteasome/UCH37, Ub-AMC cleavage fluorescence;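 active = mean of two replicates above 20%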;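 also: 0% = compound-free wells with enzyme and 100% = wells lacking proteasome; stock transfer was 100 nL into about 20 µL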
Target sequence (Q9Y5K5 whole entry, looked up): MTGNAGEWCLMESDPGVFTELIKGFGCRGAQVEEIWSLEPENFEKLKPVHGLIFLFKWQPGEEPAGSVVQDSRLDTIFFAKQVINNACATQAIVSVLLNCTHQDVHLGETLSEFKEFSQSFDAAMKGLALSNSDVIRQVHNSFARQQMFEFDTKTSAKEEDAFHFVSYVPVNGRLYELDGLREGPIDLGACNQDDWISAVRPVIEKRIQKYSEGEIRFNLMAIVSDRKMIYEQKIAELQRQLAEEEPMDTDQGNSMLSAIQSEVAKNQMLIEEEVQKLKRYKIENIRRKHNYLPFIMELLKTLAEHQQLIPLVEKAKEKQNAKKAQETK
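Material: Human UCH37 enzyme supplied as purified proteasome complex | Schedule: 30 min preincubation with enzyme, 25 min cleavage at room temperature | Detection: AMC fluorescence 355/460 nm | Measure: % inhibition of Ub-AMC cleavage fluorescence | Controls: Wells without proteasome as full block, compound-free enzyme plus substrate as uninhibited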
RanGTP-Impb inh: disruptors of Ran-importin-beta complex formation – biochemical, FRET, CFP-Ran, YFP-importin-beta, homogeneous, primary screen | cell-free CFP-Ran/YFP-importin-beta FRET ratio | inhibition, % (test concentration not listed) | 300,000 tested, 1.1% active;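 active = most replicates above 15%; inconclusive = exactly half above 15%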;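 also: 0% = DMSO wells and 100% = Ran loaded with GDP instead of GTP; wells of about 40 µL received 100 nL stock; the first replicate is given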
A1 inh: inhibitors of the anti-apoptotic protein A1, read as caspase activation; MEF A1-2A-BIM cells, Caspase-Glo 3/7 luminescence, 3 h; percent of clofoctol response, vehicle zero; caspase activation, % (no concentration beside the values); 330,000 tested, 0.066% active;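 active = over half of replicate activation scores above 10%, or exactly half above 10 with the replicate mean above 10; inconclusive = replicate mean below 10 yet half the replicates above 10; inactive = over half of replicates below 10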;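 also: wells of about 30 µL received 50 nL stock; many hits fall short of the cut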
T cruzi inh: T. cruzi replication inhibition; T. cruzi beta-gal in NIH3T3, luminescence, 90 h; inhibition, % (concentration not given with the values); 300,000 tested, 1.4% active;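 active = mean inhibition across valid replicates above about 55%, limit read from the data; inconclusive = mean below that limit but half or more replicates reach it; inactive = mean below it, under half of replicates reach it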;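 also: signal also drops with host cell toxicity which is not excluded here; 0% = plate median of DMSO wells and 100% = zero luminescence signal; higher percent means less beta-gal luminescence so fewer parasites; stock transfer was 50 nL into about 50 µL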
* = called active by the depositor; ? = inconclusive; . = not tested or not shown.

SMILES	Beta2AR agonist	LANA-H2B inh	Calb FLC	Beta cell apopt	UCH37 DUB inh	RanGTP-Impb inh	A1 inh	T cruzi inh
Cn1c(=O)c2c(nc(CN3CCN(C(=O)c4ccco4)CC3)n2Cc2ccc(F)cc2)n(C)c1=O	-14	-2.4	-6	.	0.8	?	0.1	4
CCCc1nn2c(=O)cc(COc3ccc(NC(=O)c4ccco4)cc3)nc2s1	-15	0.9	-23	0	-15	0.7	0.2	7
CCN1CCc2c(sc(NC(=O)c3ccc(S(=O)(=O)N4CCOCC4)cc3)c2C(=O)OC)C1	0	-6.0	5	-17	6.4	3.4	0.8	44
Cc1cc(Cl)ccc1NC(=O)COC(=O)CCNS(=O)(=O)c1ccccc1	-5	1.0	.	-2	1.6	.	0.7	.
CCN(CC)S(=O)(=O)c1cccc(NC(=O)c2ccccc2Br)c1	6	1.6	-5	1	0.2	-0.5	0.7	-2
COc1ccc(-c2csc(NC(=O)CSCc3c(C)noc3C)n2)c(OC)c1	0	-0.1	18	5	-0.9	2.2	1.2	12
N#Cc1ccccc1CSc1nnc(-c2ccncc2)o1	-2	0.7	.	-2	7.2	?	-1.7	2
O=C(NN1C(=O)/C(=C/c2cccs2)SC1=S)c1cccnc1	0	-3.8	-1	9	8.5	0.2	-0.5	.
Cc1cccc(C)c1NC(=O)CN(C)c1ccc(C(F)(F)F)cn1	5	0.1	-22	-1	0.5	-1.3	-0.4	0
C/C(=N\NC(=O)c1ccc([N+](=O)[O-])cc1)c1cccc([N+](=O)[O-])c1	4	4.1	-1	6	.	-0.5	?	-1
Cc1c(Br)c([N+](=O)[O-])nn1CC(=O)Nc1ccc(Cc2ccncc2)cc1	-1	4.0	8	1	0.6	5.0	-1.1	52
Cc1ccc(C(=O)OCCc2c(C)[nH]n(-c3ccccc3)c2=O)cc1	2	-1.4	3	-3	-0.5	-1.7	-0.5	-11
COc1cccc(CC(=O)N2CCN(c3ccccc3[N+](=O)[O-])CC2)c1	7	-0.4	13	8	-9.2	7.5	1.0	12
CNC(=O)/C(C#N)=C/c1c(N2CCN(C)CC2)nc2c(C)cccn2c1=O	-6	1.9	-10	-4	-25	-48	-0.1	4
Cc1cccc(NC(=O)CSc2nnc(CNC(=O)c3ccc(S(=O)(=O)N(C)C)cc3)n2-c2ccccc2)c1	2	-1.5	-9	0	5.9	-2.9	0.0	6
C=CCN1C(=O)CN=C1Nc1cc(C)ccc1C	8	-0.5	2	-1	5.7	-1.2	1.4	-9
Cc1ccc(NC(=O)CN2CCc3ccccc3C2)cc1	-1	-7.5	-20	-7	3.7	-0.4	0.8	-7
CN1CCN(S(=O)(=O)c2cccc(C(=O)NC3CCCc4ccccc43)c2)CC1 (stereo not given)	-2	1.3	4	-9	0.5	-0.4	0.7	-24
N#CCCn1cc(C(=O)Nc2cccc(C(=O)O)c2)c(-c2ccc(Cl)cc2)n1	1	2.8	-9	0	-1.9	-3.0	0.8	?
COC(=O)c1cccc(Cn2c(Cl)c(/C=N/NC(=O)c3ccco3)sc2=O)c1	12	1.5	-2	-2	.	0.7	0.2	2
Cc1cc2oc(=O)c3c(c2cc1OCc1nn[nH]n1)CCCC3	-5	4.4	-2	0	-77	1.5	-0.2	-9
COC(=O)c1c(-c2ccc(C)cc2)csc1NC(=O)Cc1ccc(OC)c(OC)c1	16	.	6	.	0.1	1.6	.	-11
Cc1cc(S(=O)(=O)Nc2ccc(C(=O)NCC(C)(C)N3CCOCC3)cc2)ccc1F	1	-1.1	-15	-4	1.8	3.9	0.1	-6
O=C(NC1CCCc2c1cnn2-c1ccccc1F)c1ccccn1 (stereo not given)	6	-8.9	2	0	0.2	0.5	-1.1	-12
Cc1nc(Cl)c(C(=O)NCCc2ccccc2)c(C)c1[N+](=O)[O-]	3	1.7	15	3	1.5	1.0	-0.1	-6
CCCCCOC(=O)c1ccc(NC(=O)c2ccco2)cc1	-15	-5.7	19	-1	.	-0.5	-0.8	0
C=C(c1cccc2ccccc12)P(=O)(O)O	-8	-3.2	-6	-5	0.9	-1.3	-0.7	-10
CCc1ccc(C(C)NC(=O)C2CCCO2)cc1 (stereo not given)	2	-3.4	1	.	-0.9	-1.8	-0.4	-6
Cc1cc(N2CCOCC2)nc(SCC(=O)OCc2ccccc2)n1	12	-0.7	-27	-8	0.4	-2.3	-0.3	0
COc1cccc(NC(=S)N(CCCN2CCCC2)Cc2cccn2Cc2ccc(Cl)cc2)c1	8	-1.9	-3	4	7.4	-5.2	0.3	20
CCn1c(SCC(=O)NC2CCCCC2)nnc1-c1cc2cccc(OC)c2o1	8	-0.1	0	4	4.7	8.7	-0.3	13
Cc1ccnc(NC(=O)COC(=O)C23CC4CC(CC(C4)C2)C3)n1	0	0.3	-2	-2	-0.9	4.9	0.2	12
CC(C)(C)c1[nH]nc2c1C(c1ccco1)C(C#N)=C(N)O2 (stereo not given)	0	-2.9	8	-7	1.6	2.5	0.1	-19
COc1ccc(CNC(=O)c2ccc(N3CCC4(CC3)CC(c3ccc(Cl)cc3)=NO4)c(NC(=O)Cc3ccc(F)cc3)c2)cc1	0	2.7	.	-3	0.2	.	2.8	.
COc1ccc(OC)c(NC(=O)CSc2nncc3ccc(OC)c(OC)c23)c1	2	-0.9	0	-1	7.6	2.7	0.7	15
COc1cccc(N2CC(O)Cn3c2nc2c3c(=O)[nH]c(=O)n2C)c1 (stereo not given)	5	-1.7	3	-1	1.2	4.9	0.5	-5
CCOC(=O)c1cc(C)n(-c2ccc(OC)c(OC)c2)c1C	-2	0.7	9	-8	-1.6	4.0	1.4	-4
COCCNC(=O)C(=O)NNC(=O)CCc1ccccc1	0	5.6	-19	-4	-0.7	-1.3	-0.6	-8
O=S(=O)(c1ccc(Cl)cc1)c1nc(-c2ccco2)oc1N1CCOCC1	-20	-3.4	0	1	3.0	1.5	0.5	1
CCNc1c(NS(=O)(=O)c2ccc([N+](=O)[O-])cc2)c(=O)oc2ccccc12	5	-8.5	-13	-5	3.8	0.9	-0.4	16
c1ccc2nc3c(nc2c1)c1ccccc1n3CCN1CCOCC1	-2	7.1	-12	18	4.8	?	-9.1	13
CCN=C1SC(CC(=O)Nc2ccccc2OCC)C(=O)N1CC (stereo not given)	0	3.1	22	-3	0.0	0.5	0.8	-15
COc1ccccc1C(CNC(=O)C1CC(=O)N(Cc2ccc(C)cc2)C1)N1CCCC1 (stereo not given)	4	-0.2	-4	0	-2.1	6.3	1.1	-2
O=c1oc2ccc(NS(=O)(=O)c3cccc4cccnc34)cc2s1	2	1.7	7	29	1.9	-1.5	0.0	-2
COc1ccc2oc(C(=O)Nc3nc4ccccc4[nH]3)c(C)c2c1	-1	-0.2	12	28	-17	0.7	-13	31
N#Cc1ccc(C(=O)Nc2ccc(S(=O)(=O)NC3=NCCCCC3)cc2)cc1	-6	1.9	4	-3	-1.0	4.2	0.4	-3
COc1ccc(CC(=O)NC2CCSc3ccccc32)c(OC)c1 (stereo not given)	1	-2.7	3	-2	2.1	0.1	-0.1	7
CC1CCCCC1NCc1cccc([N+](=O)[O-])c1 (stereo not given)	6	-4.1	5	-13	6.0	0.6	0.5	-14
COc1ccc(C(=O)Nc2cc(C(F)(F)F)ccc2Cl)cc1OC	7	2.3	26	1	-3.0	-2.3	0.6	10
Cc1cc2c(ncn2C)c(NS(=O)(=O)c2ccccc2Cl)c1C	2	1.8	0	5	2.3	-1.5	1.6	-10
Next section.
SMILES	Beta2AR agonist	LANA-H2B inh	Calb FLC	Beta cell apopt	UCH37 DUB inh	RanGTP-Impb inh	A1 inh	T cruzi inh
N#Cc1nc(-c2ccc(OCc3ccccc3)cc2)oc1NCc1cccnc1	-6	-4.0	51	1	-4.2	-1.7	-1.3	32
COc1ccc(CCC(=O)NNC(=O)Nc2cc(Cl)ccc2C)cc1	-9	4.4	27	0	-0.3	0.6	0.4	11
S=c1[nH]nc(C2CCCCC2)n1/N=C/c1c(Cl)cccc1Cl	1	3.6	-20	5	.	-4.2	-0.6	3
COC(=O)c1ccc(-c2ccco2)n1Cc1ccccc1Cl	5	-0.5	1	.	-2.9	-1.6	-0.3	-7
CN(Cc1ccc(Cl)c(Cl)c1)C(=O)c1cccc(S(=O)(=O)N2CCN(Cc3ccccc3)CC2)c1	7	-5.9	.	37	-1.2	.	0.3	.
Cc1ccc(C)c(NC(=O)c2oc(=O)c3ccccc3c2-c2ccccc2)c1	6	0.3	-5	5	3.9	-2.4	-0.2	2
O=C(Nc1cccc(C(=O)O)c1)/C(=C\c1ccccc1)NC(=O)c1ccccc1	4	-4.7	-1	-4	-0.2	7.4	0.7	6
CN=C(Nc1cc(Cl)ccc1Cl)SC1CC(=O)N(c2ccc(C(=O)OC)cc2)C1=O (stereo not given)	-8	-1.9	3	7	4.8	4.8	-0.1	16
Cc1cc(C)n(C(C)n2nc(C)cc2C)n1	0	4.3	4	-4	0.3	0.7	-0.1	2
CC1CCN(c2nc3ccccc3n2CC(=O)c2ccccc2)CC1	-3	0.9	17	-8	0.4	2.5	-0.1	7

2 compounds picked at random from the list so far, as already listed:
SMILES	Beta2AR agonist	LANA-H2B inh	Calb FLC	Beta cell apopt	UCH37 DUB inh	RanGTP-Impb inh	A1 inh	T cruzi inh
Cc1cc(C)n(C(C)n2nc(C)cc2C)n1	0	4.3	4	-4	0.3	0.7	-0.1	2
COc1ccc(CCC(=O)NNC(=O)Nc2cc(Cl)ccc2C)cc1	-9	4.4	27	0	-0.3	0.6	0.4	11

The list goes on.
SMILES	Beta2AR agonist	LANA-H2B inh	Calb FLC	Beta cell apopt	UCH37 DUB inh	RanGTP-Impb inh	A1 inh	T cruzi inh
CC(C)CC(=O)Nc1ccc2ccccc2c1	-5	-5.5	-14	-6	4.8	-0.4	-0.5	-16
Cc1ccc(C(=O)NCCc2nnc3ccc(SCC(=O)N4CCCCC4)nn23)cc1	-5	-0.9	-6	5	-2.1	1.4	2.4	1
COc1ccc(OCCCC(=O)N(C)CC(=O)Nc2ccccc2Cl)cc1	8	5.7	-10	4	4.4	1.0	0.3	4
CC1=CC(C)(C)NC(=S)N1NC(=O)c1ccccc1Cl	-2	0.4	3	-6	-0.7	-3.2	1.0	1
Cc1c(C(=O)NCCSCc2cccc(C(F)(F)F)c2)cnn1-c1ccc(Cl)cc1	-11	-1.0	-3	-2	4.7	-1.7	-0.1	.
COc1ccc(C(=O)Nc2ccc(N3CCN(C(=O)c4ccccc4)CC3)cc2)cc1[N+](=O)[O-]	5	3.8	-2	6	2.5	-9.1	-0.4	?
COc1ccc(-c2nc3ccccc3c(=O)n2CCOc2cccc(C)c2C)cc1	4	2.6	-9	5	1.9	2.7	0.2	27
Cc1ccc(N2C(S)=C(C#N)C(=O)NC2c2ccco2)cc1 (stereo not given)	-1	-0.9	31	.	.	3.1	-0.2	-22
C=CCn1c(COc2ccccc2-c2ccccc2)nnc1SCC(=O)NC(=O)NCc1ccco1	-4	-1.2	-13	-8	4.7	-1.6	-0.1	-2
CC1CCC(NC(=O)CCS(=O)(=O)c2ccc3c(c2)NC(=O)CS3)CC1 (stereo not given)	-7	4.3	46	-12	-1.1	3.8	-1.4	-4
CCC1C(=O)NCCN1C(=O)CCc1nnc(CCc2ccc(OC)cc2)o1 (stereo not given)	0	1.1	-7	-3	-2.2	7.8	1.8	1
Cc1ccc(N2CN=C(c3ccccc3)NC2=S)cc1	-3	1.3	-10	2	2.7	-5.0	1.1	-16
